# Vaccinia pol inh – inhibitors of vaccinia virus processive DNA synthesis (E9 polymerase); in vitro processive DNA synthesis, absorbance read-out; active compounds read low; some inactives read as strong as hits; normalized absorbance, % (no concentration beside the values); hit rate 0.94% among 46,000;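 active = replicate mean up to 90% and picked by the depositor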;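 note: 100% = median of the test wells of a plate; 100 nL library stock went into each well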
# The depositor's hits bear a star. Some of the compounds tested; count on the stated rates, not on these rows.
SMILES,Vaccinia pol inh
COCCN(Cc1cccs1)Cc1cc(=O)oc2ccc(OC)cc12,87.6
CC1C(c2ccccc2)=[N+]([O-])C(C)(C)N1O (stereo unspecified),99.9
CCOC(=O)c1sc2ncn(CC(=O)OC)c(=O)c2c1C,104.9
O=C1NC(=O)N(C2CCCCC2)C(=O)/C1=C/c1ccc(C(=O)O)cc1,99.8
Cc1c(C(=O)N2CCOCC2)[nH]c2ccc(OCc3ccccc3)cc12,99.3
CCOc1ccc(C(=O)CSc2nc3ccccc3s2)cc1,91.7
CC1CCN(S(=O)(=O)c2ccc3nc(-c4cccnc4)cc(C(=O)NCC4CCCO4)c3c2)CC1 (stereo unspecified),93.3
Cc1ccc(Cl)cc1N1CCN(C(=O)C2CCN(S(=O)(=O)c3cccs3)CC2)CC1,100.9
CC(O)CNC(=O)CC1(CC(=O)NCC(C)O)CCCC1 (stereo unspecified),100.8
Nc1nc(SCC(=O)N2CCCCC2)nc2sc3c(c12)CCCC3,100.2
O=C(CSC1c2ccccc2Oc2ccccc21)Nc1ccc(C(=O)O)cc1,100.8
Cc1ccc(-c2nnnn2CS(=O)(=O)c2ccccc2)cc1,105.4

SMILES,Vaccinia pol inh
Cc1cc2nnc(SCC(=O)c3cc(C)n(Cc4ccccc4)c3C)n2c2ccccc12,100.3
CCSc1ncc(Cl)c(C(=O)Nc2ccc(S(=O)(=O)N3CC(C)OC(C)C3)cc2)n1 (stereo unspecified),99.9
COc1ccc(S(=O)(=O)Nc2cccnc2)c2ccccc12,98.3
CC1=CC(C)C(C[N+]2(C)CCCCC2)C(C)C1 (stereo unspecified),86.5
COc1ccccc1/C=C/C(=O)Nc1sc2c(c1C(N)=O)CCC2,100.1
COC(=O)c1cnn2c3c(c(C)nc12)CCCC3,87.6
O=C(CSc1nnc(Cc2ccccc2)o1)NC1CCCCC1,100.6
CCOCN(C(=O)Cn1cnc2ccccc21)c1c(C)cccc1CC,100.1
Cc1ccc(/C(O)=C2/C(=O)C(=O)N(CCN(C)C)C23C(=O)N(C)c2ccccc23)cc1 (stereo unspecified),98.3
O=C1c2cccc(O)c2C(=O)c2c(O)cccc21,100.0
CCN(C(=O)c1cc2c(=O)oc3ccccc3c2s1)c1ccccc1,102.3
O=C(NCCSc1ccccc1)c1ccco1,107.7

# Laid out differently: 4 of the compounds above
COc1ccc(S(=O)(=O)Nc2cccnc2)c2ccccc12
  Vaccinia pol inh = 98.3
CC1=CC(C)C(C[N+]2(C)CCCCC2)C(C)C1 (stereo unspecified)
  Vaccinia pol inh = 86.5
COc1ccccc1/C=C/C(=O)Nc1sc2c(c1C(N)=O)CCC2
  Vaccinia pol inh = 100.1
COC(=O)c1cnn2c3c(c(C)nc12)CCCC3
  Vaccinia pol inh = 87.6

# (more compounds)
SMILES,Vaccinia pol inh
Cc1ccc2onc(OC(=O)NC(C)(C)C)c2c1,99.9
CSc1ccc(-c2ccc(SC)cc2)cc1,100.0
Cc1ccc(NC(=O)CCNS(=O)(=O)c2ccc3nc(-c4ccccc4)[nH]c3c2)cc1,90.4
O=C(CSc1ccccc1Cl)c1cc2ccccc2o1,90.9
Cc1ccccc1OC(=O)Cn1c(C(F)(F)F)nc2ccccc21,111.9
CS(=O)(=O)c1nc(-c2ccc(Cl)cc2)n[nH]1,100.5
CC1CCCCN1C(=O)CSc1nc2ccccc2n1-c1ccccc1 (stereo unspecified),97.6
O=C(NCc1ccccn1)c1ccc(N2CCCC2=O)cc1,105.1
Cc1ccc(N2CC(C(=O)O)CC2=O)cc1 (stereo unspecified),96.6
CN1OC2C(=O)N(c3ccccc3)C(=O)C2C1c1ccc(F)cc1 (stereo unspecified),94.0
Cn1nc(OCC(=O)N2CCOCC2)cc1C(F)(F)F,103.1
CC(C)(C)n1ncc2c(=O)n(Cc3cccc(C(F)(F)F)c3)cnc21,97.5

SMILES,Vaccinia pol inh
CCCNc1ncnc2nc[nH]c12,99.3
Cc1cc(=O)[nH]c(SCC(=O)Nc2ccccc2C)n1,100.4
CCc1ccc(CNC(=O)CN2C(=O)CSc3ncccc32)cc1,101.5
O=C(c1cnn2c(C(F)(F)F)cc(-c3ccccc3)nc12)N1CCCC1,104.7
Cc1csc2ncnc(Sc3ccccc3NS(=O)(=O)c3ccc(F)cc3)c12,103.1
CCC(CO)Nc1nc(C)nc2sc3c(c12)CCC3 (stereo unspecified),101.2
CCNC(=O)c1ccc2c(c1)N(C)CCS2,88.7
COc1cccc(-c2nnc(NC(=O)c3ccc(S(=O)(=O)N(C)C)cc3)o2)c1,96.1
Cc1nc2sccn2c1-c1csc(NCc2ccco2)n1,79.0
O=C1OCCC1Sc1nnc(-c2ccc(Cl)cc2)o1 (stereo unspecified),98.0
O=C(Nc1ccccc1)c1ccc(Br)s1,97.6
CC(C)(C)N=Cc1cc(-c2ccccc2)sc1S,99.1

SMILES,Vaccinia pol inh
COc1cc(Cc2cnc(N)nc2N)cc(OC)c1OC,99.9
O=C(c1noc2c1COc1ccccc1-2)N1CCC2(CC1)OCCO2,97.1
Fc1cccc(CSC2=NCN(C3CC3)CN2)c1,104.0
Cc1ccc2cc(C)c(NCc3cccnc3)nc2c1,98.7
O=C(NCCc1ccccc1)c1ccc2c(c1)N(Cc1ccc(F)cc1)C(=O)c1ccccc1S2=O (stereo unspecified),101.4
CCN1C(=O)/C(=C/c2ccccc2)SC1=S,100.2
Cc1ccc(C)c(S(=O)(=O)n2ccnc2)c1,100.3
COC(=O)c1cc2sccc2n1Cc1cc(=O)n2ccccc2n1,101.4
CCc1ccc(-c2cn3ccsc3n2)cc1,98.4
N/C(=N\c1nc2c(c(=O)[nH]1)CCCC2)Nc1ccccc1,100.2
CCOC(=O)c1[nH]c(C)c(C(=O)N2CCCCC2C)c1C (stereo unspecified),97.9
O=C(CSc1nc(-c2ccccc2)c(-c2ccccc2)o1)N1CCCC1,98.3

SMILES,Vaccinia pol inh
CC(C)(C)c1nc(=S)[nH][nH]1,96.6
COc1cc(/C=C2\SC(=S)N(C(C(=O)O)C(C)C)C2=O)cc(OC)c1O (stereo unspecified),99.6
O=C(C[n+]1ccccc1)Nc1ccc(C(=O)O)cc1,99.9
Clc1ccccc1Sc1cnc2ccccc2n1,94.2
O=C(Cn1cnc(SCc2ccccc2)n1)Nc1cccc(C(F)(F)F)c1,99.9
CCS(=O)(=O)N(CC(=O)O)c1ccc(OC)cc1,99.8
O=C(c1cc2cc(Cl)ccc2[nH]1)N1CCN(c2ccc(F)cc2)CC1,113.8
CCOc1ccccc1NC1=NCCS1,97.5
C=CCN(CC=C)C(=O)C1CCN(Cc2cccc(Cl)c2)CC1,83.2
CC(C)c1ccc(NC(=O)C(NS(=O)(=O)c2cccc3nsnc23)C(C)C)cc1 (stereo unspecified),105.8
O=S(=O)(NCC1COc2ccccc2O1)c1ccc(S(=O)(=O)c2ccccc2)s1 (stereo unspecified),97.3
CC(=O)N1CCN(C(=O)COc2ccc(Br)cc2)CC1,98.6

mol	Vaccinia pol inh
O=C(O)CCCC(=O)Nc1nccs1	103.1
O=c1[nH]c2ccc(NS(=O)(=O)c3ccc(C4CCCCC4)cc3)cc2[nH]1	99.2
Cn1cc(S(=O)(=O)NCc2ccc3c(c2)OCO3)c(C(F)(F)F)n1	90.4
COc1cc(-n2c(=O)c3ccccc3n(CC(=O)NCc3ccc(C)cc3)c2=O)cc(OC)c1OC	97.1
O=C(NCCc1ccc(F)cc1)c1ccc(S(=O)(=O)N2CCCCC2)cc1	97.9
Cc1ccc(=O)n(S(=O)(=O)c2ccc(F)cc2F)n1	101.7
O=C(COC(=O)c1cccs1)c1ccc2c(c1)OCCO2	100.1
COc1ccc(-c2cc3ccccc3n2CC(O)CNCC2CCCO2)cc1 (stereo unspecified)	98.5
O=C(c1ccccc1)c1c[nH]c(C(=O)NCc2cccnc2)c1	107.0
NS(=O)(=O)c1ccc(CNC(=O)CC23CC4CC(CC(Br)(C4)C2)C3)cc1	92.3

mol	Vaccinia pol inh
CC1CCN(S(=O)(=O)c2cc(Br)cnc2N)CC1	96.3
O=C(CCCC(=O)N1CCc2ccccc21)N1CCc2ccccc21	99.8
CSc1nc(N)nc2sc(C(=O)c3ccc(Cl)cc3)c(N)c12	102.3
O=c1oc2ccccc2cc1-c1nnc(Nc2cccc(C(F)(F)F)c2)s1	100.4
O=C(CN1C2=NCCCN2c2ccccc21)c1ccc(Br)s1	99.9
Cc1cccc(-c2n[nH]c(S(C)(=O)=O)c2C#N)c1	108.8
CNC(=O)c1ccsc1NC(=O)c1ccccc1	100.3
CCOc1ccccc1Oc1c(C)oc2cc(O)ccc2c1=O	101.6
CCCn1c(=N)c(C(=O)OC)cc2c(=O)n3ccccc3nc21	99.6
CCc1ccc(NC(=O)CSC2=Nc3ccccc3C3=NC(C(C)C)C(=O)N23)cc1 (stereo unspecified)	99.5

mol	Vaccinia pol inh
COc1cc(OC)c(NC(=O)c2sc3ncnc(N4CCCCC4C)c3c2C)cc1Cl (stereo unspecified)	98.2
c1ccc(C2CN(Cc3ccco3)C(c3ccccc3)O2)cc1 (stereo unspecified)	102.0
COc1ccc(CNCC(C)NCc2ccc(OC)c(OC)c2)cc1OC (stereo unspecified)	100.8
CCOc1nc2c(ncn2C)c(=O)n1C	93.5
CC(C)CN(Cc1c(O)ccc2c1oc(=O)c1ccccc12)CC(C)C	99.8
O=C(c1ccc2[nH]c(=O)oc2c1)c1ccc2[nH]c(=O)oc2c1	97.3
FC(F)(F)c1ccc2c(Cl)ccnc2c1	99.0
O=C(CSc1nnc(-c2ccco2)o1)NC1CCCCC1	100.9
CCCC(=O)N1CC(=O)Nc2ccc(Br)cc2C1c1ccc(F)cc1 (stereo unspecified)	99.7
O=C(COC(=O)c1cccnc1Cl)c1ccc(F)cc1	107.3

mol	Vaccinia pol inh
Cc1ccc2nc3ccc(N4CCC(Cc5ccccc5)CC4)nn3c(=O)c2c1	91.8
O=C(CC1C(=O)N(Cc2ccccc2)C(=S)N1CCc1ccc(Cl)cc1)Nc1ccccc1 (stereo unspecified)	100.2
C=CCN=C1CCCc2c1[nH]c1ccc(C)cc21	99.8
CCN(c1ccccc1)S(=O)(=O)c1ccc(CCN2C(=O)c3cccnc3C2=O)cc1	104.1
CCOC1(NC(=O)c2ccccc2)C(C)=CC(=O)C=C1C	100.2
Cc1cccn2cc(CNc3nc4ccccc4s3)nc12	109.4
Cc1nn(C(=O)CNC(=O)c2ccccc2)c(C)c1C	100.3
Nc1nnc(SCC(=O)NCc2ccco2)s1	100.4
Cc1nc2cccc(C(=O)O)c2o1	90.8
O=C(NCc1cccc2ccccc12)C(c1ccccc1)c1ccccc1	100.4

# Retrieved by compound from the entries so far:
mol	Vaccinia pol inh
Cc1nc2cccc(C(=O)O)c2o1	90.8
Nc1nnc(SCC(=O)NCc2ccco2)s1	100.4
C=CCN=C1CCCc2c1[nH]c1ccc(C)cc21	99.8
O=C(NCc1cccc2ccccc12)C(c1ccccc1)c1ccccc1	100.4
Cc1cccn2cc(CNc3nc4ccccc4s3)nc12	109.4
CCN(c1ccccc1)S(=O)(=O)c1ccc(CCN2C(=O)c3cccnc3C2=O)cc1	104.1
Cc1nn(C(=O)CNC(=O)c2ccccc2)c(C)c1C	100.3
Cc1ccc2nc3ccc(N4CCC(Cc5ccccc5)CC4)nn3c(=O)c2c1	91.8

# (listing goes on)
mol	Vaccinia pol inh
CC(C)OC(=O)CCN1C(=O)/C(=C/c2ccccc2)SC1=S	99.9
Cc1c(Cl)cccc1NC(=S)NCc1cccn1C	106.4
O=C(O)c1cccc(S(=O)(=O)N2CCc3ccccc3C2)c1	99.0
Cc1csc2sc(C=NCc3cccs3)c(C)c12	62.7*
CNC[C@@H](O)c1ccc(O)c(O)c1	97.0
CC(=O)Nc1ccc(S(=O)(=O)N2CCCC(C(F)(F)F)C2)cc1 (stereo unspecified)	101.2
Cc1cc(Cl)ccc1OCCCC(=O)Nc1ccccc1C(F)(F)F	104.6
O=c1oc2c(-c3cc(Cl)cc(Cl)c3)cc(O)cc2s1	95.4
CC1(C)CC(O)CC(C)(C)N1CC(O)COCc1ccccc1 (stereo unspecified)	95.1
N#CC(c1cccc(C(F)(F)F)c1)N1CCOCC1 (stereo unspecified)	105.2

mol	Vaccinia pol inh
CCOC(=O)c1c(C)[nH]c(-c2csc(C)n2)c1C	100.4
CCS(=O)(=O)CCc1nnc(NC(=O)Nc2cccc(C(F)(F)F)c2)s1	99.8
CN1CCN(S(=O)(=O)c2ccc(N)cc2)CC1	106.2
CC1=C(C(=O)Nc2ccccc2)C(c2ccccc2Cl)n2ncnc2N1 (stereo unspecified)	100.3
CCN(CC)Cn1nc2c3c(cccc3c1=O)-c1ccccc1-2	56.6*
CCOC(=O)c1cnc(-c2ccccc2)nc1NCc1ccccc1	100.5
O=C(CCN1CCC(c2ccccc2)C1)c1cccs1 (stereo unspecified)	108.2
CC(=O)Oc1ccc(N2C(=O)C3C4C=CC(C(OC(C)=O)OC(C)=O)(O4)C3C2=O)cc1 (stereo unspecified)	100.3
C=CCN(C(=O)CSc1cc(=O)n(CC)c2ccccc12)c1ccccc1	99.8
CCOC(=O)N1CCN(C(=O)COc2ccccc2)CC1	95.4

mol	Vaccinia pol inh
Cn1cnc(S(=O)(=O)Nc2ccccc2N2CCOCC2)c1	108.6
Cc1nc(C)c2c(=O)cc(-c3ccccc3)[nH]c2n1	102.4
O=C(/C=C/c1ccccc1)NC1CC1	100.5
CC1=CCC2CC1C(c1ccccc1)OC2(C)C (stereo unspecified)	99.9
COc1cc2c(cc1OC)CN(S(=O)(=O)c1c(C)nn(C)c1C)CC2	98.8
CCN1CCN(C(c2cccs2)C(C)NS(=O)(=O)c2ccc(C)cc2)CC1 (stereo unspecified)	96.6
O=S(=O)(Nc1ccccc1Cl)c1ccccc1	92.5
Cc1oncc1C(=O)NC1CCCCC1	102.6
NC(N)=Nc1nc(-c2ccc(-c3ccccc3)cc2)cs1	106.7
Cc1ccc(S(=O)(=O)Nc2ccc(Br)cc2C(NCC(=O)O)c2ccccc2)cc1 (stereo unspecified)	68.2*
CCC(=O)NCCc1cc2c(OC)ccc(OC)c2[nH]c1=O	103.3
O=S(=O)(NCC12CC3CC(CC(C3)C1)C2)c1cccc2nsnc12	100.2
COc1ccc(C=Nc2ccc(C)cc2C)cc1	108.9

# Screening data: PubChem, ICCB-Longwood Screening Facility, Harvard Medical School
